High-throughput results as filed in PubChem BioAssay.
miR-21 FLuc = raises the signal of a miR-21 reporter; HeLa miR-21 FLuc reporter, luciferase, 48 h; Potency, µM (series often up to 38.3 µM), without a hit: at the top dose reporter change, positive = more light; 340,000 tested, under 10 active; active = well fitted rising curve with a large enough effect; inconclusive = small, poorly fitted or top-dose-only effect; inactive = no such curve, though single readings can be large or run the other way;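 also: % of control where 0% means no effect; miR-21 action dims this reporter so a rising signal means less miR-21 action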
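HeLa cells endogenously expressing miR-21, stably carrying CMV-driven firefly luciferase with a downstream miR-21 binding site, 2000 cells/well. Titrations up to approximately 40 uM, 48 hours; luciferase luminescence read.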
* = called active by the depositor; ? = inconclusive.

miR-21 FLuc | Compound
-4% | CCOc1ccc(NC(=O)CSc2nnc3c(C)cc4ccccc4n23)cc1
-38% | CCN(CC)c1ccc(NC(=O)c2sc3ccccc3c2Cl)cc1
0% | CCCCC(=O)Nc1nnc(S(=O)(=O)N(C)Cc2ccc(Cl)cc2)s1
0% | O=C(Nc1ccc(F)c(F)c1)C(c1ccccc1)N1Cc2ccccc2C1=O (stereo unspecified)
-9% | CC(=O)N(Cc1cccnc1)c1nc2c(C)cccc2s1
? | Cc1cccc(Nc2cc(C)nc(-n3nc(C)cc3C)n2)c1
25% | COc1cccc(Nc2ccc3cc(S(=O)(=O)N4CCC(C)CC4)ccc3n2)c1
-11% | O=C1CC(c2ccc(F)cc2)c2c(n3c(nc4ccccc43)[nH]c2=O)N1 (stereo unspecified)
28% | CCOC(=O)c1c(-c2ccccc2)oc2ccc(NS(=O)(=O)c3ccc(C)cc3C)cc12
? | CN1C(=O)c2ccccc2Sc2ccc(NC(=O)NCc3cccc(Cl)c3)cc21
13% | O=C(c1ccccc1)N1CCC(c2nc3ccccc3o2)CC1
-2% | CCNC(=O)Cn1c(-c2cccs2)cc2ccccc21
17% | O=C(NCCc1nc2ccccc2n1Cc1ccccc1)c1ccco1
15% | Cc1cccc(NC(=O)CSc2nc3c(oc4ccccc43)c(=O)n2-c2ccccc2)c1C
9% | Cc1ccc(C2=NN(CC(=O)NC(C)c3ccccc3)C(=O)CC2)cc1 (stereo unspecified)
0% | Cc1cc(NC(=O)C(C)(C)Oc2ccc(Cl)cc2)cc(-c2nc3ncccc3o2)c1O
-1% | O=C(Cn1c(=O)oc2cc(S(=O)(=O)N3CCCCCC3)ccc21)Nc1cccc(C(F)(F)F)c1
-5% | CCCN(CCC)CCCNC(=O)Cn1ncn2c(cc3sc(CC)cc32)c1=O
0% | O=C(Nc1ccc(O)c(-c2nc3ccccc3o2)c1)c1ccco1
-3% | O=C(Nc1nnc(-c2cc(Cl)ccc2Cl)o1)c1ccc2c(c1)OCCO2
-14% | O=C(CNC(=O)c1ccccc1)OCc1cc(=O)n2nc(C3CCCCC3)sc2n1
-5% | Cc1ccc(CCNC(=O)CCn2nc(-c3ccccc3)ccc2=O)cc1
9% | COc1ccc(Cl)cc1NC(=O)CSc1nccn1-c1ccc(Cl)cc1
-3% | CCOc1ccccc1NC(=O)NCc1noc2ccc(C)cc12
0% | COc1ccc(OC)c(NC(=O)c2cnc(N3CCCCC3)c3ccccc23)c1
0% | Cn1cc(S(=O)(=O)N2CCCCCC2)cc1C(=O)N1CCN(c2ccc(F)cc2)CC1
23% | COc1ccc(C2=C(C)C(=O)N(Cc3ccc(C(=O)Nc4cccc(F)c4)cc3)S2(=O)=O)cc1
5% | COc1cccc(CNC(=O)c2ccc3c(c2)N(Cc2ccc(F)cc2Cl)C(=O)c2ccccc2S3)c1
0% | Cc1ccc(CSCCNC(=O)C2CCN(S(=O)(=O)Cc3ccccc3)CC2)cc1
23% | Cc1ccccc1C(=O)N1CCC(c2nc3ccccc3s2)CC1
-1% | Cc1ccc(CNC(=O)CC2Oc3ccc(Cl)cc3NC2=O)cc1 (stereo unspecified)
4% | O=C(CN1C(=O)COc2ccc(Cl)cc21)Nc1cccc(F)c1
-6% | COc1cc(NC(=O)c2c3c(nc4ccccc24)C(=O)N(C2CCCCC2)C3)cc(OC)c1
? | Cc1cc(Nc2sc(C(=O)c3ccc(F)cc3)c(N)c2C(=O)Nc2ccc(F)cc2)ccc1Cl
-13% | CCCCCCn1nnc2sc(-c3ccccc3)cc2c1=O
9% | Cc1ccc(-n2c(=O)c3oc4ccccc4c3n(CC(=O)Nc3ccccc3)c2=O)cc1C
? | COc1ccc(Cl)cc1NC(=O)CCCN1C(=O)C(c2ccccc2)Oc2cccnc21 (stereo unspecified)
1% | CCC(=O)N1c2ccccc2CC1C(=O)NCCc1ccccc1OC (stereo unspecified)
-2% | COC(=O)c1ccc(C2c3c(oc4ccc(C)cc4c3=O)C(=O)N2Cc2ccc3c(c2)OCO3)cc1 (stereo unspecified)
8% | Cc1ccc(C(=O)c2sc(Nc3ccccc3F)c(S(=O)(=O)c3ccccc3)c2N)c(C)c1
-11% | O=c1c(N2CCc3ccccc3C2)csc2ccc(Br)cc12
14% | Cc1cc(C)c(S(=O)(=O)Nc2ccc3oc(C)c(C(=O)OC(C)C)c3c2)cc1C
19% | CCOC(=O)c1ccc(NC(=O)c2cnn(-c3ccc(C)cc3C)c2C2CCN(C(=O)OC(C)(C)C)CC2)cc1
-58% | COc1cccc(NC(=O)CSc2nnc(-c3cccs3)o2)c1
3% | Cn1c(=O)cc(SCC(=O)NCc2ccc(F)cc2)c2cc(Cl)ccc21
-3% | CCOc1ccc(C(=O)c2cn(CC(=O)Nc3ccc(C)c(C)c3)c3ccc(OCC)cc3c2=O)cc1
5% | COc1ccc(CN(C(=O)Nc2cccc(Cl)c2)c2ccccn2)cc1OC
-43% | COc1cccc(-c2cn3c(n2)sc2cc(C(=O)NCc4ccccc4F)ccc23)c1
-4% | Cc1nc(SCC(=O)Nc2ccc(C)c(Cl)c2)cc(-c2ccccc2)n1
7% | CCCCn1c(CCNC(=O)c2ccc(F)cc2)nc2ccccc21
-3% | COc1ccc(OC)c(CNC(=O)NCc2noc3ccc(C)cc23)c1
3% | CCc1ccc2c(c1)c(=O)c(S(=O)(=O)c1ccccc1)cn2CC(=O)Nc1cc(C)ccc1C
-7% | CCC(CC)C(=O)Nc1cccc(-c2nc3ncccn3c2C)c1
11% | CCOC(=O)c1cc(C)n(CC2CCC(C(=O)Nc3ccc(OC)cc3)CC2)c1C (stereo unspecified)
17% | Cc1ccccc1CN1CCc2nc(N3CCN(c4ccccn4)CC3)ncc2C1
23% | O=S(=O)(Nc1cccc(F)c1)c1ccc2[nH]c3c(c2c1)CCCCC3
0% | CCC(CC)c1nn2c(=O)cc(COc3ccc(NC(=O)c4ccc(Cl)cc4)cc3)nc2s1
-4% | COc1ccc(C)cc1NC(=O)C1CCN(S(=O)(=O)c2ccc3c(c2)CCCN3C(C)=O)CC1
28% | Cc1cccc(NC(=O)CSc2nc3ccccc3nc2N2CCC(C)CC2)c1
13% | COc1ccc(S(=O)(=O)NCc2ccc3c(c2)CCN3C(=O)c2ccc(C)cc2)cc1Cl

Continued.
miR-21 FLuc | Compound
-2% | COc1ccc2c(c1)c1c(c(=O)n(Cc3ccccc3)c(=O)n1Cc1cccc(Cl)c1)n2C
2% | Cc1c(Cl)cccc1NC(=O)Cn1nnc(-c2nc(-c3ccccc3)no2)c1N
-4% | CC(=O)c1ccc(NC(=O)C2CCC(CNS(=O)(=O)c3ccc(Br)s3)CC2)cc1 (stereo unspecified)
0% | COc1ccc(CN(Cc2ccco2)c2cnc(S(C)(=O)=O)nc2C(=O)Nc2ccc(C)cc2C)cc1
-5% | COc1ccccc1NC(=O)c1oc2ccccc2c1NC(=O)Cc1ccccc1
-6% | CSc1ncc(C(=O)Nc2ccccc2C(=O)c2ccccc2)c(C)n1
3% | O=C(CCS(=O)(=O)c1cc(Br)cc2c1N(C(=O)C1CC1)CC2)NCc1ccc(Cl)cc1
3% | CCOc1cc(C(=O)Nc2ccc3c(c2)n(C)c(=O)c(=O)n3C)cc(OCC)c1OCC
1% | CCCCn1c(=N)c(S(=O)(=O)c2ccc(C)cc2)cc2c(=O)n3cc(C)ccc3nc21
? | Cc1ccc(C)c(N2CCN(CCCNC(=O)c3nnc(Cc4ccc(F)cc4Cl)o3)CC2)c1
3% | COc1ccc(S(=O)(=O)c2c(O)c3ccc(C(=O)NCc4ccccc4)cc3[nH]c2=O)cc1
-1% | Cc1c(-c2cccc(NC(=O)Nc3ccccc3)c2)nc2ncccn12
0% | O=C(CSc1nnc(-c2ccc(Cl)cc2)c(-c2ccc(Cl)cc2)n1)NC1CCCC1
-11% | COc1ccccc1Nc1ncnc2scc(-c3ccc(F)cc3)c12
4% | CCOC(=O)C1CCCN(C(=O)c2ccc3c(c2)N(Cc2ccccc2F)C(=O)c2ccccc2S3=O)C1 (stereo unspecified)
-11% | Cc1oc(C)c2c(=O)cc(-c3ccc4c(c3)OCO4)cc(OC(=O)c3ccccc3Br)c12
-1% | CC(C)Cn1cc(NC(=O)NCc2cccc(Cl)c2)c2ccccc2c1=O
4% | Cc1cccc(/C=C(\C#N)c2nc3ccccc3c(=O)[nH]2)c1
-10% | Cc1ccccc1NC(=O)Cn1c(=O)n(CCC(=O)NCc2ccc3c(c2)OCO3)c(=O)c2sccc21
20% | CCCNC(=O)Cn1nc(-c2ccc(C)cc2)c2cnc3ccc(CC)cc3c21
-2% | Cc1ccccc1Nc1c(-c2cc(Br)ccc2F)nc2ccccn12
-2% | O=C(CSc1nc(=O)[nH]c2c1CCC2)Nc1cc(C(F)(F)F)ccc1Cl
0% | CCCCOC(=O)c1ccc(Nc2nnc(-n3nc(C)cc3C)c3ccccc23)cc1
0% | CCc1ccc(S(=O)(=O)NCc2ccc3c(c2)CCN3C(=O)c2ccc(C)cc2)cc1
7% | CCOc1cc(C(=O)N(Cc2nc(-c3ccc(C)cc3)no2)C(C)C)cc(OCC)c1OCC
-1% | Cc1nc(N2CCOCC2)c2c(C(=O)N3CCN(c4ccccc4)CC3)c(C)oc2n1
-5% | COC(=O)c1cc(NC(=O)c2ccc(-c3ccc(Cl)cc3Cl)o2)cc(C(=O)OC)c1
-1% | Cc1ccc(CSc2ncc(Cl)c(C(=O)Oc3ccc(F)cc3)n2)cc1
-6% | COc1ccc2c(C)c(CCC(=O)NCc3ccccc3OC)c(=O)oc2c1
-2% | COc1ccc(N2CC(NC(=O)c3c(F)cccc3Cl)CC2=O)cc1OC (stereo unspecified)
-3% | CCc1c(CN2CCN(c3cccc(C)c3C)CC2)csc1C
-3% | CC(C)n1c(SCC(=O)c2ccc(F)cc2)nc2c(sc3ccccc32)c1=O
0% | COc1cc(OC)c(NC(=O)c2oc3ccc4c(c3c2C)C(=O)CC(C)(C)O4)cc1Cl
0% | CCOc1ccccc1NC(=O)Cn1c(=O)n(-c2ccc(C)c(C)c2)c(=O)c2c(C)c(C(=O)N(C)C)sc21
8% | COc1ccccc1N1CCN(CCCNC(=O)c2cnn(-c3ccc(C)c(C)c3)c2C2CCN(C(=O)OC(C)(C)C)CC2)CC1
-1% | COc1ccc(NC(=O)CSc2nc(O)c(C/C=C/c3ccccc3)c(=O)[nH]2)cc1
-1% | CCc1nnc(NC(=O)CSc2nc3c([nH]c4ccccc43)c(=O)n2-c2cc(C)cc(C)c2)s1
20% | O=C(c1ccc2c(c1)N(Cc1cccc(Cl)c1)C(=O)c1ccccc1S2(=O)=O)N1CCN(Cc2ccccc2)CC1
7% | Cc1ccc(CNC(=O)c2cc3c(s2)-c2ccccc2SC3)cc1
7% | COc1cc(OC)c(NC(=O)N2CC3CCCN3c3ccccc32)cc1Cl (stereo unspecified)
19% | CCOc1ccccc1NC(=O)Cc1noc2ccc(C)cc12
-3% | COc1ccc(C)cc1-n1cnc2cc(C(=O)NC3CCCCCC3)ccc21
6% | CCc1ccccc1Nc1nn2c(=O)c3ccc(C(=O)NCCc4ccccc4)cc3nc2s1
-17% | Cc1ccc(NC(=O)c2cc3c(=O)n(Cc4cccnc4)ccc3nc2C)cc1F
5% | CCN(CC)CCSc1nnc2c3cc(F)ccc3n(C)c2n1
-5% | CC(C)OCCCn1c(=O)c2ccccc2n2c(-c3cc(Cl)ccc3O)nnc12
-9% | COc1ccc(OC)c(NC(=O)CSc2nc(-c3ccccc3C)nc3cc(=O)[nH]n23)c1
3% | COc1cc(CNC(=O)c2cnc3c(-c4cccc(C)c4)c(C)nn3c2C)cc(OC)c1OC
15% | CCOc1ccccc1Nc1sc(C(=O)c2ccccc2)c(N)c1C(=O)NCCc1ccccc1
3% | CCOc1ccc(NC(=O)NC(C)c2c(-n3cccc3)sc3c2CCN(CC)C3)cc1 (stereo unspecified)
-2% | CCc1nc2c(cnn2-c2ccc(Cl)cc2)c(=O)n1-c1ccc(OC)c(Cl)c1
-6% | O=C(NCc1ccccc1)NC1COc2ccccc2C1 (stereo unspecified)
? | Cc1ccc(CNC(=O)CN(c2cccc(C)c2C)S(=O)(=O)c2ccccc2)cc1
-4% | CC(C)(C)OC(=O)N1CCC(c2c(C(=O)N3CCN(C(=O)c4ccco4)CC3)cnn2-c2ccc(Cl)cc2)CC1
-1% | Cc1nc(N2CCCC2)ncc1C(=O)NCc1ccc(Cl)cc1
11% | O=C(Cn1ccc2cc(S(=O)(=O)N3CCCCC3)ccc21)NCc1ccccc1Cl
6% | O=C(CS(=O)(=O)c1cccc2nsnc12)N1CCN(c2cccc(C(F)(F)F)c2)CC1

Some of the compounds tested, so the mix of outcomes need not match the whole.
